# RE007 growth inh – less growth of the S. pombe RE007 Vpr strain; S. pombe RE007 Vpr strain, BacTiter-Glo ATP luminescence, 24 h; control for the full effect not named in the record; Potency, µM (doses to about 92.2 µM), inactives show at the highest dose activity change, negative = less growth; hit rate 0.21% among 360,000; AID 651644; active = well fitted falling curve with a large enough effect; inconclusive = small, poorly fitted or top-dose-only effect; inactive = no such curve, though single readings can be large or run the other way;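 also: % is scaled to controls: 0 for no effect and ±100 for the full control effect; nearly all actives have a fitted effect of over 50% in size; the assay follows cell death caused by Vpr and the record does not say whether a fall means rescue or toxicity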
#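 Fission yeast strain RE007, carrying one chromosomally integrated HIV-1 vpr copy, was seeded at OD 0.01 in PMG+AL medium with 23 nL pinned compound. After 24 h at 30 °C and 99% humidity, viability was read by BacTiter-Glo luminescence.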
# Marburg entry inh – blocks Marburg virus binding to or entry into cells; Potency, µM (doses to about 37.8 µM), for the others: top-dose activity change, negative = inhibition, actives largely listed as inhibitors; hit rate 1.8% among 300,000; Marburg virus pseudotyped entry inhibition, cell reporter; control for the full effect not named in the record; about a third of the inactives were read at about 46 µM; active = well fitted inhibition curve with a large enough effect; inconclusive = small, poorly fitted or top-dose-only effect, or effect the other way; inactive = flat fitted curve, though single readings scatter; tested in HEK293 cells; about a fifth of its hits are not listed in these tables; also: % is scaled to controls: 0 for no effect and ±100 for the full control effect; luciferase read-out
# 2A StopGo – FMDV 2A StopGo reporter, luciferase signal. human cells with a luciferase reporter of 2A StopGo recoding; control for the full effect not named in the record. Potency, µM (series often up to 57.9 µM), without a hit: top-dose signal change, negative = less light. hit rate 1.2% among 410,000. AID 1159524; active = well fitted falling curve with a large enough effect; inconclusive = small, poorly fitted or top-dose-only effect; inactive = no such curve, though single readings can be large or run the other way; tested in HEK293T cells; also: % is scaled to controls: 0 for no effect and ±100 for the full control effect; nearly all actives have a fitted effect of over 45% in size; luciferase light after 4 h
# SARS PLP yeast – blocks SARS-CoV papain-like protease in a yeast assay; Potency, µM (doses to about 32.9 µM), without a hit: top-dose activity, positive = growth rescue; hit rate 0.19% among 330,000; S. cerevisiae expressing SARS-CoV PLpro, growth rescue; control for the full effect not named in the record; also: 0% is about no effect; nearly all actives have a fitted effect of over 55% in size; growth read by luminescence after 48 h
# Cruzain inh Det – blocks cruzain activity in presence of Triton detergent | AID 1478 | Potency, µM, inactives show max response, negative = inhibition, most hits filed as inhibitors | hit rate 0.43% among 200,000 | purified cruzain, Z-FR-AMC fluorescence, 0.01% Triton; active = well fitted curve in the direction sought with a large enough effect; inconclusive = small, poorly fitted or top-dose-only effect, or another doubt; inactive = no such curve, though single readings can be large; an effect the other way counts as inactive or inconclusive;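 also: plate controls were neutral wells for no effect and buffer without enzyme for full effect; nearly all actives have a fitted effect of over 40% in size; top concentration of the series not given in the record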
# Target sequence (P25779 123-467 limits assumed): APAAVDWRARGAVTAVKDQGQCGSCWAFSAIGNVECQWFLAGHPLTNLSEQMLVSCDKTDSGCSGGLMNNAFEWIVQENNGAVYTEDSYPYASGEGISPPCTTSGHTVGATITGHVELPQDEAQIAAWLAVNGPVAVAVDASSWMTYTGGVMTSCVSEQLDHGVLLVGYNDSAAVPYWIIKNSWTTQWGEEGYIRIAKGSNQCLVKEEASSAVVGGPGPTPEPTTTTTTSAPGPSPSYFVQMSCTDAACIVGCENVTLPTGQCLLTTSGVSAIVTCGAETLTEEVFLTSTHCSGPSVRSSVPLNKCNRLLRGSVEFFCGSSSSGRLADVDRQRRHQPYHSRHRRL
#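 Enzyme 1.5 nM, Z-FR-AMC 2 uM, NaOAc 100 mM pH 5.5, DTT 5 mM, Triton X-100 0.01%; 15 min RT compound preincubation; kinetic ex360/em450, 60 s delta.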
# NS1 function inh – inhibitors of influenza NS1 protein function | S. cerevisiae slowed by influenza A NS1, growth recovery by OD600 | Potency, µM (doses to about 46.1 µM), without a hit: at the highest dose activity, positive = more growth | hit rate 0.4% among 270,000 | AID 2326; also: actives are rising curves; nearly all actives have a fitted effect of over 50% in size
#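 OD600 was taken as the measure of yeast growth restored by compound in an NS1-expressing S. cerevisiae strain. Cells had been washed out of glucose medium and diluted 1:100 into galactose -URA medium, pH 6.0.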
# LASV entry inh – Lassa virus entry inhibition. Lassa virus pseudotype entry inhibition, cell reporter; control for the full effect not named in the record. Potency, µM (titrated, usually from 37.9 µM), for the others: top-dose activity change, negative = inhibition, hits mostly inhibitors. hit rate 1.2% among 300,000; active means well fitted inhibition curve with a large enough effect; inconclusive means small, poorly fitted or top-dose-only effect, or effect the other way; inactive means flat fitted curve, though single readings scatter; tested in HEK293 cells; also: % is scaled to controls: 0 for no effect and ±100 for the full control effect; nearly all actives have a fitted effect of over 50% in size; luciferase read-out
# Cruzain noTriton – cruzain (T. cruzi) inhibition without detergent | P25779 | purified cruzain, Z-FR-AMC fluorescence, no detergent | Potency, µM, for the others: max response, negative = inhibition, most hits filed as inhibitors | hit rate 2.3% among 200,000 | AID 1476; active = well fitted curve in the direction sought with a large enough effect; inconclusive = small, poorly fitted or top-dose-only effect, or another doubt; inactive = no such curve, though single readings can be large; an effect the other way counts as inactive or inconclusive;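 also: plate controls were enzyme without inhibitor for no effect and buffer without enzyme for full effect; nearly all actives have a fitted effect of over 40% in size; top concentration of the series not given in the record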
#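 Purified cruzain at 1.5 nM, pre-incubated 15 min with compound at room temperature in 100 mM sodium acetate pH 5.5, 5 mM DTT, 0.00005% Triton X-100. Reaction started with 2 uM Z-FR-AMC; AMC fluorescence increase over 60 s gives rate.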
# Starred values were filed as active, the others as inactive; ? = inconclusive; . = not tested or not shown; & = joins results of further samples; [ ] = another dose, or the depositor's remark. Unless noted, calls follow the shape of the dose curve; as a rule, active means well fitted rising curve with a large enough effect; inconclusive means small, poorly fitted or top-dose-only effect; inactive means no such curve, though single readings can be large or run the other way. Potency is read from the fitted curve at half-maximal effect.
SMILES,RE007 growth inh,Marburg entry inh,2A StopGo,SARS PLP yeast,Cruzain inh Det,NS1 function inh,LASV entry inh,Cruzain noTriton
O=C(NC1CCCCC1)C1CCCN(S(=O)(=O)c2ccc(Br)s2)C1 (stereo unspecified),-2%,-15%,-18%,-1%,.,.,-10%,.
Cc1ccnc(NC(=O)c2cccc(NS(=O)(=O)c3ccccc3C)c2)c1,2%,?,9%,-3%,-0.8%,-1%,0%,2%
O=C(Nc1cccc(Cl)c1)c1ccc(OC(=S)N2CCOCC2)cc1,-4%,-21%[46.1 µM],9%,-2%,.,.,0%,.
O=c1nc2c(O)cccn2c2c1c(=O)[nH]c1ccccc12,-2%,-10%,-8%,8%,-11%,13%,2%,3%
CCc1ccc(CN(Cc2ccco2)C(=O)c2cc(-c3ccc(Cl)cc3)on2)cc1,.,23%[46.1 µM],-2%,.,-1.2%,.,-11%[46.1 µM],-2%
COCCCn1c(SCC(=O)Nc2ccc(NC(C)=O)cc2)nc2sc3c(c2c1=O)CCC3,17%,4%[46.1 µM],3%,0%,.,-5%,-4%[46.1 µM],.
CCCCCNS(=O)(=O)c1cc(C)ccc1OC,-2%,6%,107%[activator],-1%,-2.5%,-1%,7%,9%
CCN(CC)S(=O)(=O)c1ccc(N2CCCC2)c(NC(=O)c2ccc(N3CCCC3=O)cc2)c1,12%,-12%,-9%,0%,.,.,-26%,.
Cc1cc(C)n2nc(CC(=O)NCc3ccccc3Cl)nc2n1,-13%,-3%,-14%,-15%,16µM*,6%,-10%,8%
CCCCc1cc(=O)oc2cc(C)cc(OCC(=O)Nc3cccnc3)c12,-4%,-1%[46.1 µM],-21%,-2%,.,-3%,-9%[46.1 µM],.
O=C(Nc1ccccc1N1CCCC1)C1CCN(C(=O)c2ccc(F)cc2)CC1,5%,?,-26%,1%,.,.,-3%,.
CC(C)C(NC(=O)OCc1ccccc1)C(=O)N1CCOCCOCCOCC1 (stereo unspecified),-14%,6%[46.1 µM],-4%,13%,.,.,?,.
COc1cc(SC#N)ccc1N=Cc1c(C)[nH]n(-c2ccc(C)cc2C)c1=O,15%,-18%,?,.,-2.0%,-71%,-11%,-17%
COc1ccc(NS(=O)(=O)c2ccc(NC(C)=O)cc2)c(OC)c1,1%,?,-7%,1%,.,4%,-30%,.
CC(C)Cn1cnc2c(SCc3ccccn3)nc(N)nc21,4%,?,37%[activator],.,1.6%,-8%,8%[46.1 µM],6%
CC(Oc1ccccc1F)C(=O)NNC(=O)CCNC(=O)c1ccco1 (stereo unspecified),-2%,20%,-17%,-1%,.,.,-4%,.
Cc1ccc(COc2ccccc2C(=S)N2CCCC2)cc1,-1%,-23%[46.1 µM],40%[activator],-2%,.,.,4%,.
CN(C)CCN(C(=O)c1ccc(S(=O)(=O)N(C)c2ccccc2)cc1)c1nc2cc3c(cc2s1)OCO3,-4%,1%[46.1 µM],-16%,-1%,.,14%,?,.
O=c1nccc(N/N=C/c2ccccc2O)[nH]1,3%,5.6µM*,7%,1%,.,3%,?,.
CCOc1ccc(NC(=O)c2ccc3c(c2)N(Cc2ccc(F)cc2)C(=O)CS3=O)cc1 (stereo unspecified),22%,-1%,-16%,-3%,-8.2%,?,.,17%
C=CCOc1ccc(C2C(C(=O)c3ccco3)=C(O)C(=O)N2CCCN(CC)CC)cc1 (stereo unspecified),-29%,5%,25%,4%,-1.5%,0%,20%,-9%
COc1ccccc1N1C(=O)[C@@H]2C(C(=O)CN3C(=O)c4ccccc4C3=O)=NN[C@@H]2C1=O,4%,-3%,2%,9%,.,-11%,-6%,.
COc1cccc(NC(=O)c2ccc3c(c2)N(C)CCS3)c1,-21%,.,12%,-14%,.,-1%,.,.
OCCCn1c(-c2ccc(F)cc2)csc1=Nc1ccc(F)cc1,.,?,0%,.,-10%,.,-15%[46.1 µM],-10%
Cc1cccc(NC(=O)c2ccc3nc(CCc4ccccc4)oc3c2)c1C,.,.,8%,.,-2.4%,.,-2%[46.1 µM],2%
CCCCn1c(SCC(=O)NC2CCCC2)nnc1-c1ccco1,0%,-11%[46.1 µM],1%,0%,.,0%,.,.
N=C1C(c2nc3ccccc3s2)=C(O)CN1C1CCC(O)CC1 (stereo unspecified),24%,-11%[46.1 µM],33%,0%,.,-1%,-3%,.
COc1ccc(S(=O)(=O)N(CC(=O)NCC2CCCO2)C2CCCCC2)cc1OC (stereo unspecified),10%,?,6%,1%,.,1%,4%[46.1 µM],.
COC(=O)c1cc(OC)c(OC)c(OC)c1NC(=O)c1ccc(S(=O)(=O)N(C)C)cc1,1%,8%,.,3%,-0.7%,-4%[9.22 µM],-25%,-7%
O=C(c1cc2n(n1)C(C(F)(F)F)CC(c1ccc(F)cc1)N2)N1CCCC1 (stereo unspecified),-21%,0%,.,-3%,-3.3%,?,-12%,?
Fc1c(F)c(C(F)(F)F)c(F)c(F)c1N1CCN(c2ccc3nnc(C(F)(F)F)n3n2)CC1,3%,-8%&1%,?,-9%,-1.3%,6%,-8%,24%
O=C(CC1C(=O)NCCN1C(=O)Nc1ccc(Cl)cc1)Nc1ccc(F)cc1 (stereo unspecified),7%,?,-20%,-1%,.,.,-26%,.
CCn1c(SCC(=O)N2CCOCC2)nc2c(c1=O)SC(C)C2 (stereo unspecified),-3%,12%,-23%,-11%,-4.9%,0%,0%,-5%
COc1ccccc1NC(=O)CSc1nnc(-c2ccccn2)o1,-7%,?,26%,0%,.,-6%,?,.
O=C(CCCc1nc(-c2ccc(Cl)cc2)no1)N1CCOCC1,-7%,-7%,?,-23%,-2.2%,-2%,-11%,12%
CCOc1ccc(C(OC(=O)c2ccco2)C(=O)NCc2ccc(C)cc2)cc1 (stereo unspecified),-2%,4%,-16%,-1%,0.3%,0%,-12%,1%
Cn1c(O)c(C(=O)c2ccccc2)c(=O)n(C)c1=O,2%,21%,-15%,1%,1.1%,19%,2%,9%
CC1=C(C(=O)N(C)CCC#N)C2(CCCCC2)OC1=O,0%,.,-23%,-1%,3.3%,3%,.,0%
O=c1[nH]c(=S)n(C2CC2)c(O)c1C=NCC1CCCO1 (stereo unspecified),-14%,14%,15%,0%,.,0%,10%,.
CCOc1cc(/C=C2\N=C(C)OC2=O)cc(Br)c1OCCc1ccccc1,-19%,-1%,.,4%,-19%,12%,-22%,?
O=C(Nn1c(O)c(C=C2N=c3ccccc3=N2)sc1=S)c1ccc(Cl)cc1,5%,12%,0%,13%,-8.1%,5%,-28%,?
Nc1ncnc2nc(SCCN3CCCCC3)[nH]c12,8%,-7%,17%,22%,-0.5%,-7%,11%,4%
COc1ccc(CN2CC3CC(C2)c2cccc(=O)n2C3)cc1OC (stereo unspecified),5%,4%,-25%,-6%,-0.6%,9%,16%,3%
COc1ccc(C2=C(N3CCN(c4cc(Cl)ccc4C)CC3)c3ccccc3C2=O)cc1,.,5%[46.1 µM],-23%,.,-7.9%,.,17%[46.1 µM],?
CCc1ccccc1N1CCN(S(=O)(=O)c2cc(OC)ccc2OC)CC1,19%,-18%,11%,-5%,-3.1%,-9%,-29%[14.3 µM],-9%
Cc1ccc(-c2nc(CS(=O)(=O)CC(=O)NCCc3ccccc3)c(C)o2)cc1,.,1%[46.1 µM],0%,.,1.0%,.,14%[46.1 µM],-9%
CCC(C)c1ccccc1N1CC(C(=O)Nc2ccc(N3CCOCC3)cc2)CC1=O (stereo unspecified),-7%,-1%,-22%,-2%,.,.,9%,.
N#Cc1ccccc1NC(=O)COC(=O)/C=C/c1cn(-c2ccccc2)nc1-c1ccc(Cl)cc1,-14%,0%[46.1 µM],-8%,-1%,.,-3%,.,.
Cc1ccc(N(C)C(=O)CCS(=O)(=O)c2cc3c(cc2Cl)NC(=O)CO3)cc1,11%,.,-7%&0%,2%,-3.0%,-5%,16%[46.1 µM],-1%
Cc1cccc(N2CCN(C(=O)CCCn3c(=O)[nH]c4ccsc4c3=O)CC2)c1C,.,25%[46.1 µM],?,.,-1.2%,.,-20%[46.1 µM],4%
O=C(COc1ccccc1)NNC(=O)c1cc2ccccc2oc1=O,-5%,21%,37%[activator],6%,-3.5%,-1%,26%,-1%
NC(=O)C1CCCN(Cc2ccc3ccccc3c2)C1 (stereo unspecified),0%,.,-12%,4%,.,9%,.,.
CCN1CCN(Cc2ccc(C)cc2C)CC1,11%,-12%,-24%,-2%,-0.5%,3%,-28%,-3%
Cc1cccc(C(=O)N[C@H](C(=O)Nc2ncc(C)s2)C(C)C)c1,-11%,5%[46.1 µM],40%[activator],-4%,.,0%,.,.
Cc1cc(C)c2cc(CNC3CCCC3)c(Cl)nc2c1,-15%,?,-13%,0%,.,1%,-17%[46.1 µM],.
CCN(CC)CCCNC1=C(Cl)C(=O)c2ccccc2C1=O,?,?,28µM*,-1%,.,-9%,?,.
Cc1cccc(OCCCn2ccnc2)c1,13%,-4%,25%,1%,8.1%,2%,-6%,5%
CCOC(=O)C1(Cc2cccc(F)c2)CCN(Cc2cnn(CC)c2)CC1,-10%,-11%[46.1 µM],-20%,1%,.,3%,-3%,.
Cc1c(C(=O)N(C)c2ccccc2)oc2c1C(O)CC(C)(C)C2 (stereo unspecified),-2%,.,1%,-4%,.,4%,.,.
O=C(COC(=O)C1CC2C=CC1C2)Nc1ccccc1[N+](=O)[O-] (stereo unspecified),-6%,3%,7%,-16%,.,.,24%,.

# The results go on:
SMILES,RE007 growth inh,Marburg entry inh,2A StopGo,SARS PLP yeast,Cruzain inh Det,NS1 function inh,LASV entry inh,Cruzain noTriton
NCCCCc1cn(CC(=O)N2CCNCC2)nn1,-8%,.,2%,0%,.,-2%,.,.
COC(=O)Cc1ccc(NC(=S)N2CCC(Cc3ccccc3)CC2)cc1,?,-5%,11%,-3%,.,-40%,?,.
COc1cc(/C=C2/C(=N)N3C=CSC3=NC2=O)ccc1OCCCOc1ccccc1C,3%,?,.,1%,-5.4%,3%,-6%,-5%
COc1cccc(COC(=O)C2CC(=O)N(Cc3ccc(C)cc3)C2)c1OC (stereo unspecified),-9%,13%,-11%,-3%,.,.,-13%,.

# Assay outcomes (PubChem)
